GCN5L2 inh – qHTS Assay for Inhibitors of GCN5L2 | AID 504327, 2011 | 0.21% of 390,000 active | Histone acetyltransferase KAT2A (Homo sapiens), Q92830 | Potency, µM (doses to about 58.9 µM), for the others: at the highest dose activity change, negative = inhibition, most hits filed as inhibitors | GCN5L2 HAT assay, ThioGlo1 CoA-SH fluorescence; active = well fitted inhibition curve with a large enough effect; inconclusive = small, poorly fitted or top-dose-only effect, or another doubt; inactive = no such curve, though single readings can be large or run the other way
Target sequence (Q92830 whole entry, looked up): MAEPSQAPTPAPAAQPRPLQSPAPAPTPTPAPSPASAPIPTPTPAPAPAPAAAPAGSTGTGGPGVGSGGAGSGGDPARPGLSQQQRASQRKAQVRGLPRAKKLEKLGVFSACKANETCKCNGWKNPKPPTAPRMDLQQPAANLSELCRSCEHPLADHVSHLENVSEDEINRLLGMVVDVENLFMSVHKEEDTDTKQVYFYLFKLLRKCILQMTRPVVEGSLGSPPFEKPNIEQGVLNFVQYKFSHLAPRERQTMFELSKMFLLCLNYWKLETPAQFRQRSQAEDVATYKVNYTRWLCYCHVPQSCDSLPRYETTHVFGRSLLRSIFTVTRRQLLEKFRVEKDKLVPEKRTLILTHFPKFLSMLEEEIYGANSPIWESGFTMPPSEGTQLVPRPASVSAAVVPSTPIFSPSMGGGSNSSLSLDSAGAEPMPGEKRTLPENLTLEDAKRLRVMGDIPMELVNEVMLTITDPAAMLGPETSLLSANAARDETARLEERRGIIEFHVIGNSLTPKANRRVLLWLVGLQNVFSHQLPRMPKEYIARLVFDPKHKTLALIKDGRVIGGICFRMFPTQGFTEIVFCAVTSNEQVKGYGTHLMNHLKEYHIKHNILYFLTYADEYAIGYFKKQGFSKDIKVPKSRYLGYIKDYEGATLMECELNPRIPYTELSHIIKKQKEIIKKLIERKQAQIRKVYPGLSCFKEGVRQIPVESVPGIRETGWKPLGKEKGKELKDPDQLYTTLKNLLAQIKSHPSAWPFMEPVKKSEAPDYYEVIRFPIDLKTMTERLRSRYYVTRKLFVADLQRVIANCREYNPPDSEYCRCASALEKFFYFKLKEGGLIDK
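Compounds, pin-transferred from DMSO stocks, meet 20nM GCN5L2 for 15 min before the reaction begins with H3(1-25) peptide (75uM) and acetyl-CoA (70uM). Thiol-reactive ThioGlo1 reports CoA release over 20 min at room temperature.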
An asterisk follows results filed as active; & = joins results of further samples; [ ] = dose if it differs, or a comment. % is set by controls: 0 for no effect and ±100 for the full control effect; potency is the fitted concentration of half-maximal effect.

Screening O=C(NCCCn1ccnc1)c1cc(C(=O)C2CCCCC2)c[nH]1 returned GCN5L2 inh 0.4%.
For Cc1sc(NC(=O)C2CC(Cl)=CCC2C(=O)O)c(C#N)c1C (configuration not stated) the results were GCN5L2 inh -2.4%.
For CCCCn1c(N)c(N(CC(C)C)C(=O)c2c(CC)noc2C)c(=O)[nH]c1=O the results were GCN5L2 inh 1.9%.
`CCCCNC(=S)NNC(=O)c1c(C)nc2ccccn12` gave GCN5L2 inh -11.4%.
Cc1ccc(-c2nc(NC(=O)c3nn(C)cc3[N+](=O)[O-])sc2C)cc1C was read as GCN5L2 inh -1.1%.
Screening CCCCCn1c(N(C)Cc2ccccc2)nc2c1c(=O)[nH]c(=O)n2C returned GCN5L2 inh 1.1%.
Screening O=C1c2ccccc2NC(c2ccccn2)N1c1ccc(Cl)cc1 (configuration not stated) returned GCN5L2 inh -9.4%.
Screening CS(=O)(=O)Nc1ccc(S(=O)(=O)N2CCCCCC2)cc1 returned GCN5L2 inh -0.9%.
For CCOC(=O)c1sc(C)c2c(=O)n(CC)nnc12 the results were GCN5L2 inh -9.6%.
`O=C(NCCc1cccc(F)c1)/C(=C/c1cccnc1)NC(=O)c1ccccc1` gave GCN5L2 inh -2.2%.
Screening O=C(CSc1nc2ccccc2c(=O)n1CCCN1CCOCC1)Nc1cccc(S(=O)(=O)N2CCCCCC2)c1 returned GCN5L2 inh -9.2%.
For Cc1ncc([N+](=O)[O-])n1CCOC(=O)c1ccccc1 the results were GCN5L2 inh -4.0%.
`COc1ccc(C2=NN(CC(=O)NCCc3ccc(OC)c(OC)c3)C(=O)CC2)cc1` gave GCN5L2 inh 1.1%.
Screening CN1CCN(C(=O)c2cc(COc3ccc(F)cc3Cl)on2)CC1c1ccccc1 (configuration not stated) returned GCN5L2 inh -7.5%.
For Cc1nc2ccccc2c2c1C(=O)N(C(C)C)C2=O the results were GCN5L2 inh -5.2%.
Screening CN(Cc1cccc(Cl)c1)C(=O)C1CCN(C(=O)Nc2ccccc2)CC1 returned GCN5L2 inh 1.7%.
`O=S(=O)(NC1=NCCCCC1)c1ccc(Cl)cc1` gave GCN5L2 inh -1.4%.
For O=C(CSc1nnc(CNc2ccc(F)cc2)n1Cc1ccco1)N1CCCC1 the results were GCN5L2 inh -7.2%.
For CN(C)CCc1c[nH]c2ccc(Cn3cncn3)cc12 the results were GCN5L2 inh 0.0%.
Screening CCn1cc(C(=O)NC2CCCCC2)c(=O)c2cc(S(=O)(=O)N(C)C)ccc21 returned GCN5L2 inh 9.4%.
Screening COc1ccc(NC(=O)CN(Cc2ccccc2)S(C)(=O)=O)cc1OC returned GCN5L2 inh 0.3%.
O=C(COc1ccc(Cl)cc1)Nc1ccccc1OCc1cc(=O)n2ccccc2n1 was read as GCN5L2 inh -8.7%.
Cc1nnc2c(N3CCN(c4ccc(F)cc4)CC3)nc3ccc(C(=O)c4ccccc4)cc3n12 was read as GCN5L2 inh -8.1%.
`O=C1CN(CC(=O)Nc2cccc(Cl)c2Cl)c2ccccc2N1` gave GCN5L2 inh -10.3%.
`Cc1ccc(C2C(C(=O)c3cccs3)=C(O)C(=O)N2c2ccc(S(N)(=O)=O)cc2)cc1` (configuration not stated) gave GCN5L2 inh -6.6%.
COc1ccc(N(C(=O)c2cccc(C)c2)S(=O)(=O)c2ccc3c(c2)n(C)c(=O)n3C)cc1 was read as GCN5L2 inh -14.0%.
For O=C(CSCc1ccccc1Cl)N1CCN(c2ccc(F)cc2)CC1 the results were GCN5L2 inh -15.6%.
Screening O=C(N/N=C/c1ccco1)C1CC1(c1ccccc1)c1ccccc1 (configuration not stated) returned GCN5L2 inh -10.4%.
Screening CCOC(=O)c1ccc[n+](C(C)C(=O)c2ccc(-c3ccccc3)cc2)c1 (configuration not stated) returned GCN5L2 inh -3.2%.
Screening CC(=O)NC(C)C(=O)OCc1ccc(Cl)cc1Cl (configuration not stated) returned GCN5L2 inh -7.0%.
Screening O=c1c2ccccc2nc2n1CCN2 returned GCN5L2 inh -2.6%.
`COc1ccc(C2CCCN2C(=O)Nc2ccccc2)cc1OC` (configuration not stated) gave GCN5L2 inh -4.1%.
Screening O=C(Nc1ccccc1N1CCCCC1)c1ccco1 returned GCN5L2 inh -2.5%.
`Cc1c(Cl)cccc1NC(=S)NCCC(c1ccccc1)c1ccccc1` gave GCN5L2 inh -10.3%.
`O=C(c1ccc([N+](=O)[O-])cc1)N1CCC(Cc2ccccc2)CC1` gave GCN5L2 inh -9.3%.
For Cc1cccc2nc(CSc3nnc(N)s3)cn12 the results were GCN5L2 inh -5.6%.
Screening COC(=O)c1ccc(CSC2=NC[C@@H]3[C@@H]4C(=O)N(C)C(=O)[C@@H]4[C@](C)(C(=O)OC)N23)cc1 returned GCN5L2 inh -1.5%.
CCCn1cc(S(=O)(=O)c2ccc(F)cc2)c(=O)c2cc(OCC)ccc21 was read as GCN5L2 inh -1.5%.
`CC1(c2ccccc2)NC(=O)N(CC(=O)Nc2cccc(/C=C/c3ccccn3)c2)C1=O` (configuration not stated) gave GCN5L2 inh -9.7%.
Screening COc1ccccc1C(C(=O)NCc1ccccc1)N(C(=O)c1csnn1)C1CC1 (configuration not stated) returned GCN5L2 inh -4.8%.
For Cc1cccc(NC(=O)CNC(=O)COC(=O)C2CC2C)c1C (configuration not stated) the results were GCN5L2 inh -4.8%.
Cc1ccc(CNC(=O)c2ccc3c(c2)nc2n3CCCC2)cc1 was read as GCN5L2 inh -2.4%.
For O=C(NCCn1ccc2ccccc21)c1ccc(S(=O)(=O)N2CCOCC2)cc1 the results were GCN5L2 inh -0.1%.
O=C(c1cc(-c2ccccc2)nc2ccccc12)N1CCN(c2ccccn2)CC1 was read as GCN5L2 inh 0.5%.
COc1ccc(-n2c(C)cc(C(=O)CSc3nnc(-c4ccoc4C)n3C)c2C)cc1 was read as GCN5L2 inh -4.4%.
For Cc1ccc(NC(=O)CCNS(=O)(=O)c2ccccc2)cc1S(=O)(=O)N1CCOCC1 the results were GCN5L2 inh -8.7%.
COc1ccc(/C=C/c2nc3ccccc3c(=O)o2)cc1 was read as GCN5L2 inh -10.1%.
For CC1CC(C)CN(C(=O)c2cccc(S(=O)(=O)N3c4ccccc4CC3C)c2)C1 (configuration not stated) the results were GCN5L2 inh -5.9%.

Continued, overlapping the part above by 2 compounds.
COc1ccc(/C=C/c2nc3ccccc3c(=O)o2)cc1 was read as GCN5L2 inh -10.1%.
For CC1CC(C)CN(C(=O)c2cccc(S(=O)(=O)N3c4ccccc4CC3C)c2)C1 (configuration not stated) the results were GCN5L2 inh -5.9%.
For CCOc1ccc2c(c1)c(=O)c(C(=O)c1ccc(CC)cc1)cn2CC(=O)Nc1ccccc1OC the results were GCN5L2 inh 2.4%.
`CCCc1cc(=O)[nH]c(SCC(=O)N2CCc3ccccc32)n1` gave GCN5L2 inh 0.1%.
C=CCn1c(SCc2nc3sc4c(c3c(=O)[nH]2)CCCC4)nc2ccccc2c1=O was read as GCN5L2 inh -0.1%.
Screening O=C(NCCCl)Nc1ccccc1NS(=O)(=O)c1cccs1 returned GCN5L2 inh -2.8%.
For COC(=O)c1c(NC(=O)c2ccc(S(=O)(=O)N3CCCC(C)C3)cc2)sc2c1CCN(C(C)C)C2 (configuration not stated) the results were GCN5L2 inh -18.9%.
For O=C(NC1CCCC1)C(NS(=O)(=O)c1ccc(Br)s1)c1ccccc1 (configuration not stated) the results were GCN5L2 inh -1.4%.
For O=C(Nc1nnc(-c2ccc(Br)cc2)o1)c1cccc(N2C(=O)CCC2=O)c1 the results were GCN5L2 inh -8.9%.
Screening Cc1nnc(SCC(=O)NC2CCCCC2)n1N returned GCN5L2 inh 1.6%.
For O=C1NC(=S)N/C1=C\c1cccnc1 the results were GCN5L2 inh -5.3%.
For CC1(C)CC2(C)Nc3ccccc3N2C(=S)N1 (configuration not stated) the results were GCN5L2 inh -0.4%.
For CN(C)c1ccc(N2C(=NC(=O)CCc3ccccc3)SC3CS(=O)(=O)CC32)cc1 (configuration not stated) the results were GCN5L2 inh -7.4%.
For O=C(Cn1c(=O)n(Cc2cccs2)c(=O)c2cccnc21)Nc1ccc(F)cc1 the results were GCN5L2 inh -9.7%.

Filtered by structure: those above with an aryl thioether with sulfur outside any ring.
Screening O=C(CSc1nc2ccccc2c(=O)n1CCCN1CCOCC1)Nc1cccc(S(=O)(=O)N2CCCCCC2)c1 returned GCN5L2 inh -9.2%.
For O=C(CSc1nnc(CNc2ccc(F)cc2)n1Cc1ccco1)N1CCCC1 the results were GCN5L2 inh -7.2%.
For Cc1cccc2nc(CSc3nnc(N)s3)cn12 the results were GCN5L2 inh -5.6%.
COc1ccc(-n2c(C)cc(C(=O)CSc3nnc(-c4ccoc4C)n3C)c2C)cc1 was read as GCN5L2 inh -4.4%.
`CCCc1cc(=O)[nH]c(SCC(=O)N2CCc3ccccc32)n1` gave GCN5L2 inh 0.1%.
C=CCn1c(SCc2nc3sc4c(c3c(=O)[nH]2)CCCC4)nc2ccccc2c1=O was read as GCN5L2 inh -0.1%.
Screening Cc1nnc(SCC(=O)NC2CCCCC2)n1N returned GCN5L2 inh 1.6%.

Continuation:
CCCC(=O)N(CCN1CCOCC1)c1nc2c(OCC)cccc2s1 was read as GCN5L2 inh -3.5%.
Screening C=C(C)C1CC=C(C)/C(=N/NC(=O)c2cccs2)C1 (configuration not stated) returned GCN5L2 inh -1.1%.
`COc1ccc(-n2c(Cc3cc(=O)[nH]c(=O)[nH]3)nnc2SCC(=O)N2CCC(C)CC2)cc1` gave GCN5L2 inh 0.6%.
`O=C(NCCCN1CCCCC1)c1ccc2c(c1)ncn2C1CCCC1` gave GCN5L2 inh 0.6%.
Screening O=C(CCc1n[nH]c(=O)[nH]c1=O)Nc1cccc([N+](=O)[O-])c1 returned GCN5L2 inh -2.4%.
For COc1ccc(S(=O)(=O)Nc2cc3c4c(oc3c3ccccc23)CCCC4=O)cc1 the results were GCN5L2 inh -11.6%.
Screening Cc1noc(C)c1NC(=O)N(C)C[C@H]1Oc2c(NC(=O)c3ccncc3)cccc2C(=O)N([C@H](C)CO)C[C@@H]1C returned GCN5L2 inh -1.3%.
For CCOc1ccc(CC2c3cc(OCC)c(OCC)cc3CCN2C(=O)c2cc(OC)c(OC)c(OC)c2)cc1OCC (configuration not stated) the results were GCN5L2 inh -7.0%.
CCN(CC(=O)NCc1cccs1)S(=O)(=O)c1ccc([N+](=O)[O-])cc1 was read as GCN5L2 inh -1.9%.
Screening Cn1c(=O)c2cc(S(=O)(=O)Nc3cccc(F)c3)ccc2n(C)c1=O returned GCN5L2 inh -5.2%[0.501 µM].
CCOc1cc(/C=C2/NC(=O)NC2=O)cc(Br)c1OCc1ccc(C(=O)O)cc1 was read as GCN5L2 inh inconclusive.
COc1ccc(N2C(=O)c3ccccc3NC23CCC(C)CC3)cc1 (configuration not stated) was read as GCN5L2 inh -4.9%.
Screening CCNc1nc(NC(C)CC)nc(Oc2ccc(=O)[nH]n2)n1 (configuration not stated) returned GCN5L2 inh 5.4%.
Screening COc1cc2c(cc1OC)C(Cc1ccc(O)cc1)NCC2 (configuration not stated) returned GCN5L2 inh -1.6%.
`O=C1CCC(C(=O)NCCCn2ccnc2)N1` (configuration not stated) gave GCN5L2 inh 1.6%.
COc1ccc(S(=O)(=O)N2CCOC23CCN(S(=O)(=O)c2cc(F)ccc2F)CC3)cc1 was read as GCN5L2 inh -12.2%.
Screening O=[N+]([O-])c1ccc(-c2n(-c3ccccn3)c3ccccc3[n+]2-c2ccccn2)cc1 returned GCN5L2 inh 1.7%.
`Cc1cc(CSc2ccccc2)ccc1NC(=O)c1ccc(CN2CCOCC2)cc1` gave GCN5L2 inh 0.5%.
For Cc1ccc(NC(=S)Nc2c(C)n(C)n(-c3ccccc3)c2=O)cc1Cl the results were GCN5L2 inh -9.0%.
`CC[C@@H](CCC=C(C)C)C(=O)N(Cc1ccccc1)c1ccccc1` gave GCN5L2 inh inconclusive.
Screening COC(=O)N/N=C(\C)c1ccc(-n2ccnc2)cc1 returned GCN5L2 inh -5.9%.
O=C(NCC1CCCN(Cc2ccc3nonc3c2)C1)c1cccc(C(F)(F)F)c1 (configuration not stated) was read as GCN5L2 inh -6.8%.
O=C(CCCn1c(=S)[nH]c2ccc(Br)cc2c1=O)NCC1CCCO1 (configuration not stated) was read as GCN5L2 inh -4.2%.
`C=CCNCc1cccn1-c1ccccc1` gave GCN5L2 inh 0.0%.
O=C(Nc1ccc(F)cc1)c1cccc(N2CCCS2(=O)=O)c1 was read as GCN5L2 inh -17.4%.
Cc1ccccc1OCC(=O)OCC(=O)NCc1ccc2c(c1)OCO2 was read as GCN5L2 inh 2.5%.
For Cc1cc(NC(=O)c2ccco2)ncc1NC(=O)Cc1ccccc1 the results were GCN5L2 inh -5.2%.
Cc1ccc2oc(=O)c3cnn(CC(=O)NC4CCC(C)CC4)c3c2c1 (configuration not stated) was read as GCN5L2 inh 1.4%.
Screening O=C1CCCC2=C1C1c3ccccc3C(=O)N1c1ccc(C(=O)c3ccccc3)cc1N2 (configuration not stated) returned GCN5L2 inh -10.2%.
CC(C)c1cc(C(=O)OCC(=O)N2CCN(C(=O)c3ccco3)CC2)c(O)c(C(C)C)c1 was read as GCN5L2 inh -2.6%.
Screening CC(=O)N1CCCc2cc(S(=O)(=O)Nc3ccc(OC(F)(F)F)cc3)ccc21 returned GCN5L2 inh -10.2%.
Screening CCNS(=O)(=O)c1ccc2nc(NC(=O)c3cccnc3)sc2c1 returned GCN5L2 inh -4.0%.
C=C1C[C@H]2[C@@H]3C=C(C)C4=CC(=O)CC[C@]4(C)[C@H]3CC[C@]2(C)[C@@]1(OC(C)=O)C(C)=O was read as GCN5L2 inh -17.5%&1.5%.
`CCC(C)Sc1cc(C(F)(F)F)c(C(=O)Nc2ccc(Cl)cc2)cn1` (configuration not stated) gave GCN5L2 inh -8.2%.
`COc1ccccc1N1CCN(C(=O)CCc2ccccc2)CC1` gave GCN5L2 inh -0.1%.

A portion of the library, and most or all hits are left out here.
